UCH37 inh – human UCH37 deubiquitinating enzyme inhibition; Q9Y5K5; purified proteasome/UCH37, Ub-AMC cleavage fluorescence; inhibition, % (test concentration not listed); 0.33% of 330,000 active;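 active = mean of two replicates above 20%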;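 also: 0% = compound-free wells with enzyme and 100% = wells lacking proteasome; stock transfer was 100 nL into about 20 µL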
Target sequence (Q9Y5K5 whole entry, looked up): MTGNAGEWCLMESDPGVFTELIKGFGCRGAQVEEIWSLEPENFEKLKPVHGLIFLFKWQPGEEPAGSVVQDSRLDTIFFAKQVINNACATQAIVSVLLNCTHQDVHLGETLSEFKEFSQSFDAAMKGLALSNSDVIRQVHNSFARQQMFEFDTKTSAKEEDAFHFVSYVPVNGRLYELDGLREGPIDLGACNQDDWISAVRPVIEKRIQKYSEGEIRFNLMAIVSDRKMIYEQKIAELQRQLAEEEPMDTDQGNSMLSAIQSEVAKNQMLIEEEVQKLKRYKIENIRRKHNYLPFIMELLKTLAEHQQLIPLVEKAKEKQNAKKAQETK
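Material: human UCH37 enzyme supplied as purified proteasome complex. Measure: % inhibition of Ub-AMC cleavage fluorescence. Medium: pH 7.4 Tris-HCl (50 mM) with ovalbumin, ATP-MgCl2, DTT. Times: 30 min preincubation with enzyme, 25 min cleavage at room temperature. Detection: AMC fluorescence intensity at 355/460 nm.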
rRNA inh HTS – inhibitors of bacterial rRNA selective over humanized ribosomes. 1.6% of 350,000 active. AID 720706. GFP signal change (wild-type ribosome), % (no concentration beside the values). E. coli WT GFP vs humanized-ribosome RFP mutants, fluorescence, 24 h; active compounds read low; DMSO median 0, no signal -100;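 active = significant combined selectivity score with lowered wild-type GFP, culture density cut under 30%, mutant RFP and density less affected; inactive = any of these conditions unmet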; also: one replicate is shown; some compounds called inactive have numbers as strong as hits
Beta2AR agonist – activates human beta-2 adrenergic receptor causing internalization; P07550; Am2.2-beta2AR cells, FAP receptor internalization, flow cytometry; reference of the scale not given here; response, % (concentration not given with the values); 0.43% of 340,000 active;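 active = response above a set limit, near 3 SD of response in nonfluorescent compounds, cut at about 42% in these data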;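 also: stock transfer was 100 nL into about 11 µL; a reference agonist was the positive control; negative values mostly stem from fluorescent compounds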
Ecoli growth – blocks Escherichia coli growth; OD600, 23 h; active compounds read low; OD600 absorbance (concentration not given with the values); 0.21% of 330,000 active;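 active = OD600 absorbance below the run mean of sample wells minus 3.6 SD, in any replicate, cut at about 0.56 in these data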;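 also: stock transfer was 300 nL into about 60 µL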
FGF22 binding – binders of recombinant human FGF22 by thermal shift | Q9HCT0 | SYPRO orange fluorescence; percent of sucrose octasulfate shift, DMSO zero | calls only at 9.99 µM | 1.5% of 340,000 active | AID 651658;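 active = melting point raised past a set limit in the mean and every replicate; inconclusive = no clear call; three in four hits are not shown here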
Target sequence (Q9HCT0 whole entry, looked up): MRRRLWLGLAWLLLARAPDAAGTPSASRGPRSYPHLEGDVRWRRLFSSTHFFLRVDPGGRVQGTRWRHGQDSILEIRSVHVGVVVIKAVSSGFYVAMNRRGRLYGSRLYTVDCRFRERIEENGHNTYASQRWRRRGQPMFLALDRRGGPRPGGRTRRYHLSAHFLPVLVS
HNF4A DNA FP – change in binding of human HNF4 alpha to DNA. P41235. HNF4a-FITC DNA binding, fluorescence polarization, 1 h. activity change, % at 10 µM. 0.3% of 360,000 active; in the data active = activity change above about 30%, passing the limit was not always enough;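 also: controls were the assay level and a saturating level of protein; the project sought stronger binding though the title names inhibitors; some compounds called inactive have numbers as strong as hits; positive values seem to mean higher polarization but the record does not say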
Target sequence (P41235 whole entry, looked up): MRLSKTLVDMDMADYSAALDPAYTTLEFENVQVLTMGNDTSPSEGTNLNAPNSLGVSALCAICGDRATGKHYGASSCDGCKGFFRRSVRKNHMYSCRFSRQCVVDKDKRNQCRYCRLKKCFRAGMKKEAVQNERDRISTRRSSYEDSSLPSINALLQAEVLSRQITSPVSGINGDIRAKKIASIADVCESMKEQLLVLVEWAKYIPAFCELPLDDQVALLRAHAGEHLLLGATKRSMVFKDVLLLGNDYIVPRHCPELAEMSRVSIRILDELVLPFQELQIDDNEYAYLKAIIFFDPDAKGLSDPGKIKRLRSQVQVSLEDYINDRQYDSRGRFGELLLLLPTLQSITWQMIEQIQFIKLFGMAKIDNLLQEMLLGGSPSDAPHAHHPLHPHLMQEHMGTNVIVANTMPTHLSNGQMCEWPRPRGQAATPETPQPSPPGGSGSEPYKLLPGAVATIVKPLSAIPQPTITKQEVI
ALR H2O2 inh – inhibitors of human sulfhydryl oxidase ALR | P55789 | purified ALR, DTT oxidation, H2O2 HRP-luminol luminescence | inhibition, % (concentration not given with the values) | 3.8% of 290,000 active | AID 485317;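 active = mean and each replicate at 75% or more; inconclusive = only one of the two met; inactive = neither met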;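 also: stock transfer was 7.5 nL into about 7.5 µL; 0% = neutral wells and 100% = wells with inactivated enzyme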
rRNA inh HTS OD600 – second read-out of rRNA inh HTS, no call of its own (marks repeat the call); OD600 change, %; measured here: OD600 growth;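 optical density of the mix in the first replicate; 0 = DMSO median and -100 = no signal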
rRNA inh HTS RFP – also measured in rRNA inh HTS; calls as there; RFP signal change, %; measured here: RFP humanized mutant strains;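 first replicate; 0 = DMSO median and -100 = no signal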
Active calls of the source: *; i = inactive; ? = inconclusive; · = not tested or not shown.

SMILES	UCH37 inh	rRNA inh HTS	rRNA inh HTS OD600	rRNA inh HTS RFP	Beta2AR agonist	Ecoli growth	FGF22 binding	HNF4A DNA FP	ALR H2O2 inh
COc1cccc(-c2nc(CS(=O)(=O)CC(=O)N3CCCCC3)c(C)o2)c1	1.8	-2	-2	3.0	-9	0.68	i	-4.0	-7
O=C1C=CC(=Nc2ccc3c(c2)Cc2cc(F)ccc2-3)O1	2.9	·	·	·	9	0.66	i	2.3	·
COc1ccc(NC(=O)/C=C/c2cc(Br)ccc2OC)cc1	1.2	·	·	·	15	·	·	4.2	-2
COC(=O)C(NC(=O)C(C)Oc1ccccc1)C(C)C (stereo unspecified)	-0.5	9	0	-3.3	2	0.7	i	-3.3	-4
COc1ccc(C2CC(=O)c3sc(NC(C)=O)nc3C2)cc1 (stereo unspecified)	6.8	·	·	·	-6	0.65	·	2.1	-2
CN(C(=O)CN1C(=O)c2cc(Cl)c(Cl)cc2C1=O)C1CCS(=O)(=O)C1 (stereo unspecified)	2.5	14	13	8.0	3	0.69	i	0.6	-2
O=C(Cn1c(=O)n(Cc2ccco2)c(=O)c2ccccc21)NCC1CCCO1 (stereo unspecified)	4.3	·	·	·	-3	0.69	·	-0.1	0
Cc1cccc(C)c1-n1nnnc1C(CCc1ccccc1)N1CCN(C/C=C/c2ccccc2)CC1 (stereo unspecified)	·	21	18	1.7	·	·	i	-6.1	·
CN1CCN(C(=S)Nc2ccc(Cl)c(Cl)c2)CC1	2.9	-26	-40	-6.8	18	0.7	i	-1.6	0
CCN1C[C@@H]2[C@@H]3C(=O)N(C)C(=O)[C@@H]3[C@](Cc3ccccc3)(C1=O)N2C(=O)c1ccc(F)cc1	1.0	4	8	-3.0	-7	·	i	-0.7	·
COc1ccc(Cl)cc1NC(=O)c1sc2nc(C)nc(N3CCOCC3)c2c1C	-398	11	7	1.9	-24	0.67	i	0.1	3
COc1cccc(NC(=O)CCc2nnc3ccc(N4CCC(C)CC4)nn23)c1	4.5	-11	-9	-0.3	-7	0.69	i	-1.4	-1
CN(CC1CCCO1)S(=O)(=O)c1ccc(C(=O)Nc2ccc(S(N)(=O)=O)cc2)cc1 (stereo unspecified)	5.2	1	-5	3.0	4	0.68	i	-5.5	-8
CCOC(=O)c1[nH]c2ccc(OC)cc2c1NC(=O)c1cccc(OC)c1	0.4	·	·	·	-1	0.72	·	1.6	11
COc1ccc(CCn2ccc(O)c(Cc3c(F)cccc3Cl)c2=O)cc1OC	-0.3	-12	-13	2.4	3	0.72	·	2.1	-8
O=C(COC(=O)/C=C/c1ccc([N+](=O)[O-])cc1)NCC1CCCCC1	1.7	-3	-10	0.5	-6	0.68	i	-0.3	54
CCOC(=O)N1CCC(NC(=O)c2ccccc2C(=O)O)CC1	4.5	0	6	-1.3	-1	0.68	i	2.4	-2
COc1cccc(NS(=O)(=O)c2ccc3c(c2)n(C)c(=O)c(=O)n3C)c1	4.3	-1	0	2.7	0	0.7	·	3.9	-15
O=C(N/N=C/c1cccc(Oc2ccccc2)c1)c1ccccc1F	·	-30	-40	-2.0	-16	·	i	3.3	-1
OC(COCc1ccccc1)COCc1ccccc1	-0.3	·	·	·	2	0.61	i	5.7	·
COC(=O)c1nn(-c2ccccc2)c(Sc2ccc(Br)cc2)c1/C=N/O	·	-20*	-7.2*	1.8*	-1	·	·	-2.0	0
COc1ccccc1C(=O)NC(CCSC)C(=O)NNC(=O)c1csc(N2CCOCC2)n1 (stereo unspecified)	2.7	4	12	2.9	4	0.69	i	4.7	-2
O=C(NCc1ccc2c(c1)OCO2)c1cc2c(s1)CSC2	-0.2	-8	-1	-5.9	-3	0.75	i	10.0	97*
COc1ccc(OCc2n[nH]c(=S)n2-c2ccc(C)cc2)cc1	4.6	-3	-2	0.8	7	0.67	i	6.1	?
CCOC(=O)Cc1ccc(NC(=O)c2ccc(C(C)(C)C)cc2)cc1	2.2	·	·	·	14	0.72	·	-0.7	-8
COCCCNC(=O)CN(c1ccc(F)cc1)S(=O)(=O)c1ccc2c(c1)OCCO2	2.6	-5	-4	-2.1	0	0.7	i	-0.4	-1
COCCn1c(=O)c2ccccc2c2ccccc2c1=O	2.8	0	1	-1.8	8	0.68	i	-1.1	6
O=[N+]([O-])c1cc(C(F)(F)F)ccc1N1CCC(O)CC1	1.4	-28	-32	-11	-12	0.66	i	-0.9	3
CCOC(=O)Cn1nc(-c2ccccc2)c2cnc3ccc(CC)cc3c21	-6.9	-9	2	-1.3	-6	0.74	i	3.9	31
CCCCOc1ccc(C(=O)NNC(=S)NC(=O)CC)cc1	-5.1	·	·	·	1	0.56	·	0.7	-4
Cn1c(=O)c2c(nc(OC/C=C/c3ccccc3)n2C)n(C)c1=O	4.0	·	·	·	-2	0.71	·	-1.6	2
Cc1cccc(NS(=O)(=O)c2c(C)noc2C)c1	·	13	10	1.3	-2	·	i	-3.8	0
Cc1ccc(OCCC(=O)Nc2ccc(S(=O)(=O)Nc3nccs3)cc2)cc1	2.6	-13	-8	-0.2	3	0.69	·	-2.6	·
CN(C)c1ccc(-c2ccnc3c2CC(C)(C(=O)Nc2ccc4c(c2)OCO4)O3)cc1 (stereo unspecified)	·	5	11	3.4	·	·	i	9.2	·
Cc1ccc(C)c(NS(=O)(=O)c2csc(C(N)=O)c2)c1	2.0	0	-5	2.6	3	0.67	i	-0.2	0
COc1cc2c(cc1OC)CN(CCC(C)c1ccc(Cl)cc1)CC2 (stereo unspecified)	-1.3	-33*	-24*	2.1*	4	0.66	i	2.8	-5
O=C(CN1C(=O)c2ccccc2C1=O)N1CCN=C1c1ccccc1	1.0	20	5	-0.4	7	0.66	i	2.1	-27
Cc1cc(=O)n2nc(N3CCCC3C(=O)Nc3ccc(C(C)C)cc3)sc2n1 (stereo unspecified)	0.5	0	0	3.3	-4	0.69	i	3.4	2
CC1CCN(C(=O)c2nc[nH]c2C(=O)N2CCC(C)CC2)CC1	0.5	5	-2	6.5	6	0.7	i	0.2	12
CC(=O)c1cc(C#N)c(Oc2ccc(Cl)cc2Cl)nc1C	1.3	·	·	·	-1	0.79	·	1.1	-1
CCC(=O)Nc1ccc(C(=O)NCCCn2ccnc2)cc1	-4.1	·	·	·	-3	0.72	·	2.1	100*
COc1nsnc1NS(=O)(=O)c1ccc(NC(=S)NC(=O)c2ccncc2)cc1	1.4	-33	-43	-12	-1	0.068*	i	2.8	21
Cc1nn(-c2ccccc2)nc1C(=O)Nc1nnc(C(F)(F)F)s1	3.8	-32*	-23*	-6.6*	4	0.63	i	3.5	3
CCCC(=O)N1CCCC1(C)C(=O)Nc1ccc(OC(F)F)cc1 (stereo unspecified)	·	0	-12	2.2	·	·	i	1.4	·
C/C(=N\NC(=O)NC1CCCCC1)C1CCCCC1	·	-6	1	-1.8	-7	·	i	0.8	-5
Cc1cc(C)c(S(=O)(=O)N2CCCC2)c(C)c1	3.2	10	2	2.6	7	0.7	i	4.0	-3
CCN(C(=O)COc1ccc(C(C)=O)cc1)c1cccc2ccccc12	2.0	-27	-58	-1.6	-1	0.7	i	1.6	-1
COc1ccc(CCNC(=O)c2ccc(N(C)S(=O)(=O)c3ccccc3)cc2)cc1	2.1	-15	-18	-0.2	4	0.68	i	2.5	·
CCCCCCCCOC(=O)C(NC(=O)CCC(=O)Nc1ccc(S(N)(=O)=O)cc1)C(O)c1ccccc1 (stereo unspecified)	3.1	·	·	·	3	0.7	·	-9.1	-4
Cc1ccc(NS(=O)(=O)c2cccc(C(=O)NC3CCN(Cc4ccccc4)CC3)c2)c(C)c1	12	-69	-78	-27	2	0.71	i	0.4	·
Cn1c(=O)oc2cc(S(=O)(=O)N3CCN(c4ccccn4)CC3)ccc21	0.2	8	12	2.2	-16	0.74	i	-0.7	·
O=C(N/C(=C\c1ccco1)C(=O)N1CCC(O)CC1)c1ccccc1	2.5	10	12	2.0	3	0.71	i	0.6	-2
COc1ccc(Cl)cc1C(=O)NCCCN1CCOCC1	2.9	-13	-16	-3.0	-4	0.67	i	-3.3	·
O=C(CSc1ccc(Cl)cc1)Nc1ncccn1	4.3	16	7	1.6	-5	0.63	i	1.3	0
CN(CCOc1ccc(Br)cc1)C(=O)CNC(=O)c1ccc2ccccc2c1	3.5	·	·	·	3	0.68	i	-2.0	-6
CSCCC(NC(=O)C1CCC(C)CC1)C(=O)O (stereo unspecified)	0.6	·	·	·	1	0.67	·	0.4	0

Molecules shown so far containing four or more nitrogen atoms, in the order listed:
SMILES	UCH37 inh	rRNA inh HTS	rRNA inh HTS OD600	rRNA inh HTS RFP	Beta2AR agonist	Ecoli growth	FGF22 binding	HNF4A DNA FP	ALR H2O2 inh
Cc1cccc(C)c1-n1nnnc1C(CCc1ccccc1)N1CCN(C/C=C/c2ccccc2)CC1 (stereo unspecified)	·	21	18	1.7	·	·	i	-6.1	·
COc1ccc(Cl)cc1NC(=O)c1sc2nc(C)nc(N3CCOCC3)c2c1C	-398	11	7	1.9	-24	0.67	i	0.1	3
COc1cccc(NC(=O)CCc2nnc3ccc(N4CCC(C)CC4)nn23)c1	4.5	-11	-9	-0.3	-7	0.69	i	-1.4	-1
COc1ccccc1C(=O)NC(CCSC)C(=O)NNC(=O)c1csc(N2CCOCC2)n1 (stereo unspecified)	2.7	4	12	2.9	4	0.69	i	4.7	-2
Cn1c(=O)c2c(nc(OC/C=C/c3ccccc3)n2C)n(C)c1=O	4.0	·	·	·	-2	0.71	·	-1.6	2
Cc1cc(=O)n2nc(N3CCCC3C(=O)Nc3ccc(C(C)C)cc3)sc2n1 (stereo unspecified)	0.5	0	0	3.3	-4	0.69	i	3.4	2
CC1CCN(C(=O)c2nc[nH]c2C(=O)N2CCC(C)CC2)CC1	0.5	5	-2	6.5	6	0.7	i	0.2	12
CCC(=O)Nc1ccc(C(=O)NCCCn2ccnc2)cc1	-4.1	·	·	·	-3	0.72	·	2.1	100*
COc1nsnc1NS(=O)(=O)c1ccc(NC(=S)NC(=O)c2ccncc2)cc1	1.4	-33	-43	-12	-1	0.068*	i	2.8	21
Cc1nn(-c2ccccc2)nc1C(=O)Nc1nnc(C(F)(F)F)s1	3.8	-32*	-23*	-6.6*	4	0.63	i	3.5	3
Cn1c(=O)oc2cc(S(=O)(=O)N3CCN(c4ccccn4)CC3)ccc21	0.2	8	12	2.2	-16	0.74	i	-0.7	·

Looked up above:
Value for Cc1cccc(NS(=O)(=O)c2c(C)noc2C)c1 in ALR H2O2 inh: 0
Value for CCN1C[C@@H]2[C@@H]3C(=O)N(C)C(=O)[C@@H]3[C@](Cc3ccccc3)(C1=O)N2C(=O)c1ccc(F)cc1 in rRNA inh HTS: 4
Value for CN(CC1CCCO1)S(=O)(=O)c1ccc(C(=O)Nc2ccc(S(N)(=O)=O)cc2)cc1 (stereo unspecified) in Ecoli growth: 0.68

Screening data: PubChem BioAssay, several laboratories

Only part of the results is shown, so the mix of outcomes need not match the whole.
